# Mtb hypoxia rep: reduces hypoxia-regulated biosensor signal in M. tuberculosis | M. tuberculosis hypoxia-regulated fluorescent reporter, fluorescence | fluorescence inhibition, % (concentration not given with the values) | 0.1% of 300,000 active;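 active = 35 to 45% if threefold the growth effect, above 45% if 1.5-fold the growth effect; inactive = the rest, general growth blockers included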;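 also: wells of about 50 µL received 100 nL stock; 0% = vehicle wells and 100% = reference inhibitor wells; whole bacteria with a GFP reporter of the hypoxia response; strong numbers were not always called active; many hits fall short of the cut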
# RN4220 kill: kills Staphylococcus aureus RN4220; S. aureus RN4220 growth, OD600, 16 h; inhibition, % (no concentration beside the values); 0.33% of 330,000 active; AID 1259311;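 active = z-score of -3 or lower and OD600 up to 0.18 on both plates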;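 also: plate controls were untreated cells for no effect and reference antibiotic for full effect; stock transfer was 100 nL into about 80 µL; one replicate is shown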
# Autofluor counter: counter-screen for toxin protease inhibitors: compound fluorescence | compound autofluorescence counterscreen, microsphere flow cytometry; stronger effect = higher value | fluorescence intensity (test concentration not listed) | 3.1% of 360,000 active;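 active = at least 3 SD above the mean of all compounds, about 16000 in these data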;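 also: 100 nL of 1 mM stock went into each well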
# BJeLR lethal: kills HRASV12-expressing BJeLR cells; AID 1554; 0.17% of 300,000 active; BJeLR (HRASV12) viability, CellTiter-Glo ATP luminescence, 48 h; reference of the scale not given here; inhibition, % (no concentration beside the values);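 active = replicate mean above 50%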;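 also: 50 nL library stock added to about 25 µL; numbers are from one replicate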
# PrP UTR inh: suppresses PrP 5' UTR mRNA reporter expression. cell-based PrP 5' UTR mRNA reporter, plate reader. inhibition, % (concentration not given with the values). 0.35% of 340,000 active;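 active = every replicate at 50% or more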;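 also: 0 = median of the neutral control wells; tested in H4 reporter cells; numbers are from one replicate; inactives centre near -14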
# Sa ugtP lethal: growth inhibition of S. aureus ugtP deletion strain. S. aureus RN4220 ugtP deletion, OD600 growth, 16 h; some inactives read as strong as hits. growth inhibition, % (test concentration not listed). 0.54% of 330,000 active;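 active = z-score under -3 and OD600 up to 0.15 on both plates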;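 also: plate controls were untreated wells for no effect and antibiotic for full effect; wells of about 80 µL received 100 nL stock; the first replicate is given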
# Mtb hypoxia rep growth: also measured in Mtb hypoxia rep; calls as there; growth inhibition, %; measured here: M. tuberculosis growth (absorbance);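 0% = vehicle and 100% = reference antibiotic; read after six days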
# * marks the source's active call; other numbers are inactive results; x = not tested or not shown.
cpd	canonical_smiles	Mtb hypoxia rep	Mtb hypoxia rep growth	RN4220 kill	Autofluor counter
1	O=C(Nc1nnc(CC(=O)N2CCOCC2)s1)c1cccs1	x	x	-4.1	4420
2	CCCCn1c(N)c(N(CCOC)C(=O)c2ccco2)c(=O)[nH]c1=O	-3	5	0.1	5682
3	CCN(c1ccccc1)S(=O)(=O)c1cc2c(cc1C)N(C)CCO2	x	x	2.7	5437
4	O=C(O)C(Cc1ccccc1)N1C(=O)/C(=C/C=C/c2ccco2)SC1=S (stereo not drawn)	15	4	19	4640
5	CC(=NNC(=O)CN1CCN(Cc2ccc(C)cc2)CC1)c1ccncc1	15	1	1.0	x
6	Cc1cccc(N(CC(=O)NC2CCCC2)C(=O)CCC(=O)Nc2ccccn2)c1	15	4	1.9	3494
7	O=C(NCCCn1ccnc1)C1CCCN(S(=O)(=O)c2cc(Cl)ccc2Cl)C1 (stereo not drawn)	-5	7	-5.6	5001
8	CCOC1c2c(ccc3ccc(=O)oc23)OC(C)(C)C1O (stereo not drawn)	9	10	2.7	x

cpd	BJeLR lethal	PrP UTR inh	Sa ugtP lethal
1	15	-12	1
2	-14	-26	2
3	-8	7	-1
4	7	-26	10
5	x	x	1
6	1	-14	13
7	3	-26	6
8	x	x	-11

# The listing continues.
cpd	canonical_smiles	Mtb hypoxia rep	Mtb hypoxia rep growth	RN4220 kill	Autofluor counter
9	CCOc1ccc(C2C(C(=O)c3cccs3)=C(O)C(=O)N2Cc2cccnc2)cc1 (stereo not drawn)	6	-4	-1.2	2911
10	O=C(CCl)Nc1ccc(Sc2ccc(NC(=O)CCl)cc2)cc1	8	6	5.9	4329
11	O=c1c2[nH]c3ccc(Br)cc3c2ncn1Cc1ccncc1	0	-13	0.4	x
12	CSc1ccc(C=NN2CCN(Cc3ccccc3Cl)CC2)cc1	0	9	11	x
13	CCOc1ccccc1N(CC(=O)NC(C)(C)C)C(=O)Cn1nnc(-c2ccc(C)o2)n1	-1	13	-1.7	15092
14	CCOC(=O)c1cc(CC)sc1NC(=O)c1cccc(N2C(=O)CCC2=O)c1	13	2	1.1	7409
15	COc1cccc(-c2c(C(=O)N/N=C/c3cccs3)nnn2-c2nonc2N)c1	x	x	x	5318
16	OC1CCN(Cc2ccc(OCc3ccccc3)cc2)CC1	12	11	2.7	4140

cpd	BJeLR lethal	PrP UTR inh	Sa ugtP lethal
9	6	-14	6
10	34	-12	-12
11	-6	x	7
12	x	x	-1
13	-8	-15	-2
14	-3	-17	8
15	4	-18	x
16	2	-59	5

# Continued.
cpd	canonical_smiles	Mtb hypoxia rep	Mtb hypoxia rep growth	RN4220 kill	Autofluor counter
17	COc1ccc(/C=N/Nc2nc(-c3cccnc3)nc3ccccc23)c(OC)c1	x	x	x	3852
18	CCCCn1c(N)c(N(CCOC)C(=O)c2sc3ccccc3c2Cl)c(=O)[nH]c1=O	x	x	x	7192
19	C=CCOc1ccc(Br)cc1CNCC	5	0	9.9	4773
20	CCn1c(=S)sc2c(=O)n(CC(=O)NCCCc3ccccc3)c(C)nc21	4	-9	3.2	5922
21	COc1cc(NC(=O)NS(=O)(=O)c2ccc(C)cc2)cc(OC)c1	0	9	1.6	20395*
22	CCOc1ccc(/C(O)=C/C(=O)C(=O)Nc2ccc(S(=O)(=O)NC(C)=O)cc2)cc1	9	2	1.0	1951
23	CCN(CC)CCN(C(=O)CCS(=O)(=O)c1ccccc1)c1nc2c(C)cc(C)cc2s1	13	5	-2.7	7117
24	CN1c2ccccc2C(O)=C(C(=S)Nc2ccc(Cl)cc2)S1(=O)=O	1	2	50	10597

cpd	BJeLR lethal	PrP UTR inh	Sa ugtP lethal
17	6	-11	x
18	-16	-7	x
19	3	3	2
20	-8	-10	3
21	6	-15	-2
22	-11	-12	3
23	16	-11	-2
24	-6	-18	16

# Another view of 3 compounds above.
(17) COc1ccc(/C=N/Nc2nc(-c3cccnc3)nc3ccccc23)c(OC)c1
(18) CCCCn1c(N)c(N(CCOC)C(=O)c2sc3ccccc3c2Cl)c(=O)[nH]c1=O
(19) C=CCOc1ccc(Br)cc1CNCC

assay / compound	17	18	19
Mtb hypoxia rep	x	x	5
Mtb hypoxia rep growth	x	x	0
RN4220 kill	x	x	9.9
Autofluor counter	3852	7192	4773
BJeLR lethal	6	-16	3
PrP UTR inh	-11	-7	3
Sa ugtP lethal	x	x	2

# The results go on.
cpd	canonical_smiles	Mtb hypoxia rep	Mtb hypoxia rep growth	RN4220 kill	Autofluor counter
25	COc1ccc(C)cc1N(CC(=O)N1CCCC1)S(=O)(=O)c1ccccc1	11	9	0.3	3737
26	O=C(C1CC1(c1ccccc1)c1ccccc1)N1CCOCC1 (stereo not drawn)	x	x	0.5	4743
27	CCC(C)(C(=O)NC1CCCCC1)N(Cc1ccco1)C(=O)c1cnccn1 (stereo not drawn)	11	4	7.0	16804*
28	Oc1ccccc1C=NNc1nccnc1Cl	20	3	9.3	x
29	CCCNC(=O)c1ccc(SCC(=O)N(CC)CC)c([N+](=O)[O-])c1	2	8	3.6	4380
30	CC1CCCN(S(=O)(=O)c2ccc(NC(=O)CCN3C(=O)c4ccccc4C3=O)cc2)C1 (stereo not drawn)	x	x	-4.9	4063
31	O=C(Oc1ccc[nH]c1=O)c1cc([N+](=O)[O-])cc([N+](=O)[O-])c1	x	x	x	3348
32	CNC(=S)N1CCc2cc(OC)c(OC)cc2C1COc1ccc(OC)cc1 (stereo not drawn)	-5	-1	0.9	4455

cpd	BJeLR lethal	PrP UTR inh	Sa ugtP lethal
25	-13	-9	2
26	0	-114	1
27	6	-5	-1
28	x	x	0
29	-5	4	3
30	3	-5	-10
31	7	-3	x
32	-21	-8	0

# Additional structures:
cpd	canonical_smiles	Mtb hypoxia rep	Mtb hypoxia rep growth	RN4220 kill	Autofluor counter
33	CCOc1cc(-n2ncc(C#N)c2N)nc(SC)n1	16	6	6.0	5667
34	CCc1c(C(=O)OC)nnc2cc(C)nn12	-2	1	2.1	4498
35	OCCCNC(=S)Nc1ccc(Nc2ccccc2)cc1	-6	-6	-0.5	4023
36	COC(=O)c1ccc(/C=C/C(=O)OCC(=O)c2ccc[nH]2)cc1	2	-3	0.7	3650
37	CC(=O)NC1=NN(C(C)=O)C(C)(c2cccc([N+](=O)[O-])c2)S1 (stereo not drawn)	3	2	5.1	4052
38	CC(=O)Nc1ccc(S(=O)(=O)NNC(=O)COc2cccc3ccccc23)cc1	1	8	5.3	2644
39	CCC(c1nnnn1CCc1ccccc1)N(Cc1ccco1)Cc1cc2cccc(C)c2[nH]c1=O (stereo not drawn)	x	x	11	4776
40	C=CCOc1cccc(C2/C(=C(\O)c3ccc(F)cc3)C(=O)C(=O)N2CCN(C)C)c1 (stereo not drawn)	x	x	8.6	4139

cpd	BJeLR lethal	PrP UTR inh	Sa ugtP lethal
33	-7	-27	-6
34	3	-6	0
35	7	-29	0
36	x	-20	-2
37	6	-35	6
38	-20	-26	-1
39	-4	-4	-23
40	4	-14	3

# Reformatted with one line to a screen: part of the list above
1. O=C(Nc1nnc(CC(=O)N2CCOCC2)s1)c1cccs1
2. CCCCn1c(N)c(N(CCOC)C(=O)c2ccco2)c(=O)[nH]c1=O
3. CCN(c1ccccc1)S(=O)(=O)c1cc2c(cc1C)N(C)CCO2
4. O=C(O)C(Cc1ccccc1)N1C(=O)/C(=C/C=C/c2ccco2)SC1=S (stereo not drawn)
5. CC(=NNC(=O)CN1CCN(Cc2ccc(C)cc2)CC1)c1ccncc1
6. Cc1cccc(N(CC(=O)NC2CCCC2)C(=O)CCC(=O)Nc2ccccn2)c1
7. O=C(NCCCn1ccnc1)C1CCCN(S(=O)(=O)c2cc(Cl)ccc2Cl)C1 (stereo not drawn)
8. CCOC1c2c(ccc3ccc(=O)oc23)OC(C)(C)C1O (stereo not drawn)

screen / no.	1	2	3	4	5	6	7	8
Mtb hypoxia rep	x	-3	x	15	15	15	-5	9
Mtb hypoxia rep growth	x	5	x	4	1	4	7	10
RN4220 kill	-4.1	0.1	2.7	19	1.0	1.9	-5.6	2.7
Autofluor counter	4420	5682	5437	4640	x	3494	5001	x
BJeLR lethal	15	-14	-8	7	x	1	3	x
PrP UTR inh	-12	-26	7	-26	x	-14	-26	x
Sa ugtP lethal	1	2	-1	10	1	13	6	-11

9. CCOc1ccc(C2C(C(=O)c3cccs3)=C(O)C(=O)N2Cc2cccnc2)cc1 (stereo not drawn)
10. O=C(CCl)Nc1ccc(Sc2ccc(NC(=O)CCl)cc2)cc1
11. O=c1c2[nH]c3ccc(Br)cc3c2ncn1Cc1ccncc1
12. CSc1ccc(C=NN2CCN(Cc3ccccc3Cl)CC2)cc1
13. CCOc1ccccc1N(CC(=O)NC(C)(C)C)C(=O)Cn1nnc(-c2ccc(C)o2)n1
14. CCOC(=O)c1cc(CC)sc1NC(=O)c1cccc(N2C(=O)CCC2=O)c1
15. COc1cccc(-c2c(C(=O)N/N=C/c3cccs3)nnn2-c2nonc2N)c1
16. OC1CCN(Cc2ccc(OCc3ccccc3)cc2)CC1

screen / no.	9	10	11	12	13	14	15	16
Mtb hypoxia rep	6	8	0	0	-1	13	x	12
Mtb hypoxia rep growth	-4	6	-13	9	13	2	x	11
RN4220 kill	-1.2	5.9	0.4	11	-1.7	1.1	x	2.7
Autofluor counter	2911	4329	x	x	15092	7409	5318	4140
BJeLR lethal	6	34	-6	x	-8	-3	4	2
PrP UTR inh	-14	-12	x	x	-15	-17	-18	-59
Sa ugtP lethal	6	-12	7	-1	-2	8	x	5

# Later entries
cpd	canonical_smiles	Mtb hypoxia rep	Mtb hypoxia rep growth	RN4220 kill	Autofluor counter
41	CCC(C(=O)NCc1ccco1)n1nc(C)n2c(cc3occc32)c1=O (stereo not drawn)	-1	1	0.2	5385
42	COc1ccc(C2CC(=O)N(C)c3ccccc3S2)cc1OC (stereo not drawn)	10	3	14	2572
43	Cc1ccc(CNc2ncc(-c3ccc4c(c3)OCO4)n2C)cc1	-9	9	3.7	22743*
44	O=[N+]([O-])c1ccc(Cn2cc(-c3cccc(C(F)(F)F)c3)nn2)cc1	1	1	20	3111
45	C(/C=C/c1ccccc1)=NN1CCN(c2ccccc2)CC1	6	0	2.8	x
46	S=c1[nH]c2ccc(Cc3ccc4[nH]c(=S)[nH]c4c3)cc2[nH]1	7	9	1.4	3248
47	COc1ccc(OC)c(NC(=O)[C@@]2(CC(=O)O)CC(/C=C/c3ccccc3)=NO2)c1	2	3	-2.0	3397
48	CN(C(=O)COC(=O)Cc1c(F)cccc1Cl)c1c(N)n(Cc2ccccc2)c(=O)[nH]c1=O	4	-4	-3.3	4043

cpd	BJeLR lethal	PrP UTR inh	Sa ugtP lethal
41	9	-22	2
42	-1	-50	5
43	0	-27	-13
44	-2	-10	-10
45	x	x	9
46	-7	-28	-6
47	-5	-17	14
48	x	-14	-5

# Later entries:
cpd	canonical_smiles	Mtb hypoxia rep	Mtb hypoxia rep growth	RN4220 kill	Autofluor counter
49	CCOC(=O)C1=C(COC(=O)CSc2ccc(Br)cc2)NC(=O)NC1C (stereo not drawn)	-1	3	22	5713
50	COc1cccc(-c2cc(C(=O)Nc3ccccc3SC)no2)c1	1	6	4.2	16463*
51	CCOc1ccc(NC(=O)CN(C)CC(=O)Nc2ccccc2C#N)cc1OCC	x	x	-1.1	4516
52	COc1ccc(CCNC(=O)C2CCN(S(=O)(=O)N3CC(C)CC(C)C3)CC2)cc1OC (stereo not drawn)	8	17	3.9	6003
53	Cc1sc2ncn(CC(=O)NCC3COc4ccccc4O3)c(=O)c2c1S(=O)(=O)N1CCCCC1 (stereo not drawn)	10	8	8.9	3623
54	Cc1c(C(=O)N2CCC3(CC2)OCCO3)oc2ccc(S(=O)(=O)N3CCOCC3)cc12	7	13	3.4	3481
55	COc1cc2ncnc(NCc3ccccc3F)c2cc1OC	-2	0	4.4	4264
56	Cc1nc(-n2cc(F)c(=O)[nH]c2=O)c2nc(C)oc2n1	7	9	15	17089*

cpd	BJeLR lethal	PrP UTR inh	Sa ugtP lethal
49	-4	4	0
50	-13	-29	14
51	0	9	1
52	-3	0	2
53	-6	-12	10
54	-2	-17	6
55	-6	-10	-2
56	4	-22	-3

# The list goes on:
cpd	canonical_smiles	Mtb hypoxia rep	Mtb hypoxia rep growth	RN4220 kill	Autofluor counter
57	O=[n+]1c2c(n([O-])c3cc(F)c(F)cc31)CCCC2	16	8	6.3	4340
58	O=c1cc(-c2c(O)c3ccccc3n(Cc3ccccc3)c2=O)[nH][nH]1	-11	-19	-1.0	3954
59	CC1(C)CC(=O)C(C=NC2CCCCC2)=C(O)C1	x	x	2.9	2373
60	CCN(CC)c1nc2c(s1)C(=O)NCCC2	3	-3	2.6	9848

cpd	BJeLR lethal	PrP UTR inh	Sa ugtP lethal
57	-2	-4	3
58	-10	-17	4
59	-9	-24	4
60	0	-41	2
